Source: PubChem
Mtb H37Rv: Mycobacterium tuberculosis H37Rv growth inhibition, putative kinase inhibitor library, confirmatory dose response (AID 2842) | 24,000 tested, 5.2% active | inhibition, % at 10 µg/mL, or IC90 in µg/mL where a hit was titrated | M. tuberculosis H37Rv growth inhibition; higher % means a stronger effect; some inactives read as strong as hits;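 active = confirmed in a dose series; about a fifth of its hits are not listed in these tables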;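 also: bacteria incubated one week before Alamar blue readout; 0% = bacteria only wells and 100% = bacteria with high antibiotic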
Numbers without * were called inactive.

SMILES	Mtb H37Rv
CC1CCCN(S(=O)(=O)c2ccc(C(=O)Nc3nc(-c4ccc(Br)s4)cs3)cc2)C1 (stereo not drawn)	-12%
Cc1ccc(Cn2c(=O)c3c(nc4n(Cc5ccccc5)c(C)cn34)n(C)c2=O)cc1	-6%
COc1ccc(C(=O)N(Cc2ccccc2)c2nnc(C34CC5CC(CC(C5)C3)C4)s2)cc1OC	26%
CSc1ccccc1-c1nnc(NC(=O)c2cc(Cl)sc2Cl)o1	12µg/mL*
O=C(Cn1cnc2c(cnn2-c2ccc(F)cc2)c1=O)Nc1cccc2ccccc12	2%
CCCn1c(C)cn2c3c(=O)n(Cc4ccccc4)c(=O)n(C)c3nc12	1%
CCOc1ccccc1-n1c(C)c(C)n2c3c(=O)n(CC(C)=O)c(=O)n(C)c3nc12	-9%
COc1ccc(/C=C\C(=O)NCCc2cc3ccc(C)c(C)c3[nH]c2=O)cc1OC	-3%
CCc1nc2sc(C(c3cccc(C(F)(F)F)c3)N3CCN(CCO)CC3)c(O)n2n1 (stereo not drawn)	44%
O=C(Nc1c(C(=O)Nc2ccccc2)oc2ccccc12)c1ccc([N+](=O)[O-])cc1	9%
CCCC(=O)Nc1c(C(=O)Nc2cccc(F)c2)oc2ccccc12	-2%
Cc1cc2cc(CCNC(=O)C3CCCCC3)c(=O)[nH]c2cc1C	-1%
CC1CCCN(Cc2nc3c([nH]2)c(=O)n(C)c(=O)n3C)C1 (stereo not drawn)	-3%
O=C(Nc1cc(N2CCOCC2)ncn1)c1ccc(F)cc1	3%
Cc1ccc(Cn2c(SCc3cc(=O)n4cc(Cl)ccc4n3)nc3ccsc3c2=O)cc1	-2%
COc1ccccc1-c1nnc(NC(=O)C(C)C)o1	-5%
CCOCCn1c(SCC(=O)OCc2ccccc2)nc2c1c(=O)[nH]c(=O)n2C	2%
COCC(C)Nc1ncnc2c1cnn2-c1ccc(Cl)c(Cl)c1 (stereo not drawn)	2%
O=C(O)c1ccc2c(c1)C(=O)N(C(Cc1c[nH]cn1)C(=O)O)C2=O (stereo not drawn)	-18%
O=C(CSc1ccc2nnc(-c3ccc(F)cc3)n2n1)Nc1ccc(C(F)(F)F)cc1	0%
O=C1CC(NS(=O)(=O)c2cccs2)CN1c1cccc(F)c1 (stereo not drawn)	9%
CCOC(=O)c1csc(NC(=O)c2ccc3ccccc3c2)n1	5%
Cc1ccc(C(c2sc3ncnn3c2O)N2CCN(C(=O)c3ccco3)CC2)cc1 (stereo not drawn)	-7%
COC(=O)c1ccsc1NC(=O)CN1C(=O)CCC1=O	-10%
O=C(Nc1ccccc1)c1oc2ccccc2c1NC(=O)c1c(F)cccc1F	3%
CCOC(=O)c1nn(-c2ccc(F)cc2)c(=O)c2c(NC(=O)Cc3ccc(OC)cc3)scc12	-6%
CCCOc1nn(CCC)cc1C(=O)Nc1ccc(OC)c(OC)c1	5%
Nc1nc(SCC(=O)NC2CCCC2)[nH]c(=O)c1NC(=O)c1ccccc1	-10%
O=C(CSc1ccnc(=O)[nH]1)N1CCCC1	-24%
Cc1cccc(Cn2c(SCc3ccc(F)cc3)nc3c2c(=O)n(C)c(=O)n3C)c1	8%

Quoted from above (2 entries):
SMILES	Mtb H37Rv
COCC(C)Nc1ncnc2c1cnn2-c1ccc(Cl)c(Cl)c1 (stereo not drawn)	2%
O=C(O)c1ccc2c(c1)C(=O)N(C(Cc1c[nH]cn1)C(=O)O)C2=O (stereo not drawn)	-18%

(next part)
SMILES	Mtb H37Rv
CCOc1ccc(CC(=O)NCCc2cc3ccc(C)c(C)c3[nH]c2=O)cc1	-9%
CC(=O)C(C)n1cnc2sc(C)c(C)c2c1=O (stereo not drawn)	-3%
O=C(CN1C(=O)c2ccccc2C1=O)OCC(=O)c1ccc(F)cc1	-15%
Cc1nc(SCC(=O)c2ccc3c(c2)OCCO3)c2c3c(sc2n1)CCC3	-6%
COc1ccc(OC)c(S(=O)(=O)Oc2ccc3oc4ccccc4c3c2)c1	9%
Cn1c(=O)[nH]c(=O)c2c1nc(SCC(N)=O)n2Cc1ccc(Cl)cc1	16%
O=C(Nc1ccc(-c2cn3ccccc3n2)cc1)c1cc2ccccc2oc1=O	9%
CC(=O)c1cccc(NC2=CC(=O)N(c3cccc(C(C)=O)c3)C2=O)c1	-6%
COc1cc2ccccc2cc1C(=O)Nc1nnc(-c2ccncc2)o1	21%
O=C(NCc1ccco1)c1cn(Cc2ccccc2)cc2c(=O)n(-c3ccccc3)nc1-2	-1%
Cc1c(Cl)cccc1-n1ccnc(NCc2ccc3c(c2)OCO3)c1=O	21%
Cc1ccc(-n2nnc3c(=O)n(CC(=O)c4ccc(Cl)cc4)cnc32)cc1	-5%
Cc1ccc(Sc2nc3c(c(=O)[nH]c(=O)n3C)n2Cc2ccc(Cl)cc2)cc1	-3%
Cc1ccc(N(CC(O)Cn2c3ccccc3c3ccccc32)S(C)(=O)=O)cc1 (stereo not drawn)	8%
CCCCOc1ccc(C(=O)N2CC(=O)Nc3ccc(Cl)cc3C2c2ccc(F)cc2)cc1 (stereo not drawn)	13µg/mL*
O=C(c1ccc(Cl)cc1)c1cn(Cc2ccc(F)cc2)c2cc3c(cc2c1=O)OCO3	47%
N#C/C(=C\c1ccc(-c2cccc([N+](=O)[O-])c2)o1)C(=O)Nc1cccc(F)c1	-5%
C=CCSc1nc2c(c(=O)[nH]1)C(c1ccncc1)C1=C(CCCC1=O)N2 (stereo not drawn)	-4%
COc1cccc(/C=N\Nc2cn[nH]c(=O)c2Cl)c1OC	2%
COC(=O)/C=c1/s/c(=C(\C#N)C(=O)Nc2ccc(C)cc2)n(-c2ccccc2)c1=O	-15%
NC(=O)COc1cc2c(-c3cc4ccccc4o3)cc(=O)oc2cc1-c1ccccc1	-3%
O=C(CCCc1nnc2c(=O)n(-c3ccc(Cl)cc3)ccn12)NCCc1c[nH]c2ccccc12	-7%
Cc1c(C#N)c(N)nc(SCC(=O)c2cc3ccccc3oc2=O)c1C#N	0.42µg/mL*
O=C(c1ccc2c(=O)n(Cc3ccc4c(c3)OCO4)c(=S)[nH]c2c1)N1CCOCC1	-9%
Cc1ccc(CNC(=O)c2ccc(Cn3c(=O)[nH]c4ccsc4c3=O)cc2)cc1	2%
O=C(O)CCNc1nc(-c2ccccc2)nc2ccccc12	13%
O=C(COc1ccccc1)Nc1nnc(-c2cc(Cl)ccc2Cl)o1	28µg/mL*
CCCCn1c2c(c(=O)[nH]c1=O)C(c1ccccc1)C1=C(COC1=O)N2 (stereo not drawn)	0%
O=C(O)c1ccc2oc(=O)c(S(=O)(=O)c3ccc(F)cc3)cc2c1	-2%
Cc1ccc(N2CCCS2(=O)=O)cc1NC(=O)C(=O)Nc1ccc(C(N)=O)cc1	1%

Filtered by structure, those above with two or more sulfur atoms
SMILES	Mtb H37Rv
CC1CCCN(S(=O)(=O)c2ccc(C(=O)Nc3nc(-c4ccc(Br)s4)cs3)cc2)C1 (stereo not drawn)	-12%
CSc1ccccc1-c1nnc(NC(=O)c2cc(Cl)sc2Cl)o1	12µg/mL*
Cc1ccc(Cn2c(SCc3cc(=O)n4cc(Cl)ccc4n3)nc3ccsc3c2=O)cc1	-2%
O=C1CC(NS(=O)(=O)c2cccs2)CN1c1cccc(F)c1 (stereo not drawn)	9%
Cc1nc(SCC(=O)c2ccc3c(c2)OCCO3)c2c3c(sc2n1)CCC3	-6%

Additional compounds.
SMILES	Mtb H37Rv
CCC(SCC(=O)OC)C(=O)Nc1nnc(-c2ccccc2C)s1 (stereo not drawn)	-8%
O=C(c1cccs1)N(CCCn1ccnc1)c1nc2ccccc2s1	6µg/mL*
COc1ccc(S(=O)(=O)c2cn(CC(=O)Nc3ccc(C)cc3C)c3ccccc3c2=O)cc1	-2%
Cc1ccc(C)c(NC(=O)CSc2nc3c(oc4ccccc43)c(=O)n2Cc2ccccc2)c1	-2%
CCc1nc(SCc2ccc(C(F)(F)F)cc2)c2c(=O)n(C)c(=O)n(C)c2n1	-5%
Cc1nc2sc(C(c3ccc(F)cc3)N3CCCCC3)c(O)n2n1 (stereo not drawn)	8%
Cc1csc2ncc(C(=O)NCCc3ccccc3)c(=O)n12	11%
CC(=O)c1ccc2[nH]cc(C(=O)O)c(=O)c2c1	-10%
COCC(=O)Nc1c(C(=O)Nc2ccc(OC)c(OC)c2)oc2ccccc12	-2%
CCOC(=O)COc1cc(C)cc2oc(=O)c3c(c12)CCCC3	-21%
COc1ccc2cc(CCNC(=S)Nc3ccc(Br)cc3)c(=O)[nH]c2c1	74%
Cc1csc(NC(=O)CSc2ccc3nnc(-c4ccc(Cl)cc4)n3n2)n1	-1%
CC(=O)c1cccc(NC(=O)c2ccc3nccnc3c2)c1	12%
CCN1CCc2c(sc(NC(=O)c3sc4ccccc4c3Cl)c2C(N)=O)C1	11µg/mL*
COCCn1c(C)cc(O)c(C(c2ccncc2)N2CCC(C)CC2)c1=O (stereo not drawn)	9%
CC(C)n1c(NCCCO)nc2c1c(=O)[nH]c(=O)n2C	-1%
CC1C(=O)N2CCCc3cc(NC(=O)C(=O)NCC4CCCO4)cc1c32 (stereo not drawn)	1%
CCc1cccc(OCC(O)Cn2c(N(C)C)nc3c2c(=O)[nH]c(=O)n3C)c1 (stereo not drawn)	-8%
CCN(CC)C(=O)CSc1nc(N)c(NC(=O)c2ccc(F)cc2)c(=O)[nH]1	-3%
CC(=O)N1CCc2c(sc(NC(=O)c3ccc(S(=O)(=O)N4CCCCC4)cc3)c2C(N)=O)C1	-7%
COc1cc2ccccc2cc1C(=O)Nc1nc2c(OC)cccc2s1	4%
Cc1nnc(NC(=O)CSc2nnc(CNC(=O)c3ccc(S(=O)(=O)N(C)C)cc3)n2-c2ccccc2)s1	5%
CCN(CC)C(=O)CSc1nnc2[nH]c(=O)c(C)c(C)n12	-6%
CC(=O)Oc1ccc(NC(=O)CC2Sc3ccc(C(F)(F)F)cc3NC2=O)cc1 (stereo not drawn)	2%
CCOC(=O)c1nn(-c2ccc(OC)cc2)c(=O)c2c(NC(=O)c3ccc(C)c([N+](=O)[O-])c3)scc12	0%
Cc1nc2c(ccc3nc(NC(=O)C4CCCCC4)sc32)s1	-3%
CCOC(=O)CNC(=O)Cn1cnc2c(cnn2-c2cccc(Cl)c2)c1=O	-17%
O=C(NCCSc1c(-c2ccccc2)[nH]c2ccccc12)c1ccc(-c2ccccc2)cc1	15%
O=C(Nc1sc2c(c1-c1nc3ccccc3s1)CCCC2)c1ccccc1Oc1ccccc1	1%
Nc1ncnc(NC2CCCCCC2)c1[N+](=O)[O-]	9%

3 compounds from above, sorted by count of non-hydrogen atoms, high to low.
SMILES	Mtb H37Rv
COc1ccc(S(=O)(=O)c2cn(CC(=O)Nc3ccc(C)cc3C)c3ccccc3c2=O)cc1	-2%
CC(=O)c1cccc(NC(=O)c2ccc3nccnc3c2)c1	12%
CC(=O)c1ccc2[nH]cc(C(=O)O)c(=O)c2c1	-10%

(next part)
smiles | Mtb H37Rv
Cc1cc(C)c2c(=O)c(CN(C)C3CCN(C)CC3)c(C)[nH]c2c1 | -7%
COc1ccc(-c2nnc(NC(=O)Cc3ccc(F)cc3)s2)cc1OC | -5%
COc1ccc2nc(-c3ccc(F)c(NC(=O)c4c(OC)cccc4OC)c3)cn2n1 | -10%
O=C(O)CCC(=O)NCCn1c(-c2ccccc2)csc1=Nc1ccccc1 | -6%
O=c1[nH]c2ccccc2n1CCc1ccccc1 | 7%
Cc1ccc(-c2nnc(NC(=O)c3ccc4c(c3)CCCC4)o2)c(C)c1 | 37µg/mL*
O=C(NCCO)C(=O)NCCC1CCCCN1S(=O)(=O)c1ccccc1 (stereo not drawn) | -15%
NC(=O)C1CCN(C(c2ccccc2)c2sc3ncnn3c2O)CC1 (stereo not drawn) | 22%
COc1ccc(-n2nc3c(c2NC(=O)c2ccccc2Cl)CS(=O)C3)cc1 (stereo not drawn) | 8%
O=C(CSc1nnc2ccc(-c3cccnc3)nn12)Nc1cccc(F)c1 | -7%
CC(NC(=O)NC1CC(=O)N(c2ccc3c(c2)OCCO3)C1)c1ccccc1 (stereo not drawn) | 12%
Cc1ccc(-n2c(=O)[nH]c3c(C(N)=O)nc(-c4cccs4)nc32)cc1C | -8%
CCOC(=O)c1ccccc1NC(=O)Cn1cnc2c(cnn2-c2ccc(F)cc2)c1=O | 5%
O=C(CSc1nnc2ccc(-c3cccnc3)nn12)Nc1cccc(C(F)(F)F)c1 | -16%
CCN(CC)S(=O)(=O)c1ccc(C(=O)Nc2nc(-c3c(C)cc(C)cc3C)cs2)cc1 | 13%
O=C(COc1ccccc1)Nc1c(C(=O)Nc2ccc3c(c2)OCCO3)oc2ccccc12 | 6%
CCC(Sc1ccc(C)cc1)C(=O)Nc1nnc(-c2cc(OC)ccc2OC)s1 (stereo not drawn) | 3%
Cc1ccc(C)c2[nH]c(=O)c(CCNC(=O)c3cc(Cl)ccc3[N+](=O)[O-])cc12 | 3%
O=C(Nc1nc(-c2ccc3c(c2)OCO3)cs1)c1coc2ccccc2c1=O | -8%
Cc1ccc(S(=O)(=O)Nc2ccccc2C(=O)Nc2nc(C(C)(C)C)cs2)cc1 | 4%
COc1cccc(C(=O)Nc2c3c(nn2-c2ccccc2C)CS(=O)C3)c1 (stereo not drawn) | 1%
CCN(CC)S(=O)(=O)c1ccc(C(=O)Nc2nnc(-c3cccc([N+](=O)[O-])c3)s2)cc1 | 12%
CC(=O)c1sc(NC(=O)c2sc3cc(Cl)cc(Cl)c3c2Cl)nc1C | -10%
O=C(Nc1nnc(-c2ccccc2Cl)o1)C1=COCCO1 | 4.3µg/mL*
CC(=O)c1ccc(NC(=O)CSc2ncnc3c2nnn3Cc2ccc(F)cc2)cc1 | 1%
COc1ccc(/C=c2\c(=O)n(Cc3ccccc3)c3nc4c(c(=O)n(C)c(=O)n4C)n23)cc1OC | -1%
Oc1ccc(N=Nc2ccc3c(c2)OCO3)c2cccnc12 | 40%
NC(=O)c1oc2ccccc2c1NC(=O)Cc1cccc2ccccc12 | -3%

Some of the compounds tested (hit frequency here may not be typical).
